# BmaI1 enzyme = BmaI1 acyl-homoserine lactone synthase inhibition – biochemical, fluorescence intensity, with counterscreen (AID 720554). actives 0.4% (n = 12,000). BmaI1 enzyme assay, fluorescence intensity; stronger effect = higher value; test concentration not given here; a few actives read low; strong numbers were not always called active. inhibition, %;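 active means both replicates within 2 robust z-scores of the inhibited control and a quiet counterscreen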;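 further: 0% = uninhibited enzyme and 100% = inhibited control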
# BmaI1 enzyme counterscreen = further read-out of BmaI1 enzyme, marked with its call; inhibition, %; measured here: counterscreen; design of the counterscreen not given here;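 first of two replicates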
# Active calls of the source: *.
# Start of the data: the first two records as a preview:
SMILES,BmaI1 enzyme,BmaI1 enzyme counterscreen
O=C(OCC(=O)N1CCCCCC1)c1ccc2[nH]c3c(c2c1)CCCC3,4,6
CCn1c(N)c(C(=O)COC(=O)CCc2nc3ccccc3c(=O)[nH]2)c(=O)[nH]c1=O,-6,0

# All compounds of this part, from the first entry:
SMILES,BmaI1 enzyme,BmaI1 enzyme counterscreen
O=C(OCC(=O)N1CCCCCC1)c1ccc2[nH]c3c(c2c1)CCCC3,4,6
CCn1c(N)c(C(=O)COC(=O)CCc2nc3ccccc3c(=O)[nH]2)c(=O)[nH]c1=O,-6,0
COc1ccc(N2CCN(C(=O)c3ccc(=O)[nH]c3)CC2)cc1,15,-18
COc1ccc(C(=O)OCC(=O)N2c3ccccc3CC2C)cc1 (configuration not stated),-4,-10
Cc1noc(C)c1CCC(=O)Nc1ccc(-c2cc3ccccc3o2)cc1,12,0
O=C(CN1CCN(c2ccccc2Cl)CC1)N1CCc2ccccc21,14,4
Clc1ccc(OCCCc2nc(-c3cccnc3)n[nH]2)c(Cl)c1,18,28
CCOC(=O)N1CCN(c2nc(-c3cccnc3)nc3ccccc23)CC1,4,-6
CCOC(=O)C1CCN(Cn2nc3cc(C)c4ccccc4n3c2=S)CC1,90,66
Cc1nc(SCC(=O)NCC2CCCO2)nc(C)c1C (configuration not stated),14,4
O=C(c1ccccc1F)N(Cc1ccccc1)C1C=CS(=O)(=O)C1 (configuration not stated),14,2
COc1cccc(CN(C)C(=O)C2CC(=O)N(c3ccc(C)cc3)C2)c1OC (configuration not stated),16,6
COc1ccc(CC(=O)O)cc1F,22,-6
N#C/C(=C1/CCCN1)c1nc(-c2ccccc2)cs1,12,3
CCCc1nc2ccccc2n1CC(=O)N1N=C(c2ccc(Cl)cc2)CC1c1ccco1 (configuration not stated),2,-8
CC(=O)Nc1ccc(/C=N/N2C(=O)c3ccccc3C2=O)cc1,13,14
COc1cc(/C=C/C(=O)O)cc(S(=O)(=O)Nc2ccc3[nH]c(=O)[nH]c3c2)c1OC,14,8
CNC(=O)c1c(C)nc(SCC(=O)N2CCCC2=O)c(C#N)c1-c1ccco1,11,4
CC(C)C(=O)Nc1ccc2oc(-c3cncc(Br)c3)nc2c1,5,-2
COc1cc(CNC(=O)c2ccc(N(C)C)cc2)cc(OC)c1OC,2,6
COc1cc2c(cc1/C=C/C(=O)O)OC(C)C2 (configuration not stated),15,7
C=CCn1c(=O)[nH]c(=O)c2c(N)c(C(=O)c3ccc(OC)cc3)sc21,14,16
CN(C)S(=O)(=O)c1ccc(SCC(=O)N2CCNC2=O)nc1,16,2
O=S(=O)(/C=C/c1ccccc1)N1CCN(c2ncc(C(F)(F)F)cc2Cl)CC1,7,2
CC1(C)Cc2cccc(OCC(=O)NC3CC3)c2O1,34,10
C(=N\NC1=NCCCCC1)/c1ccc2c(c1)OCO2,12,7
COc1ccc(COCC(O)CNC2CCC(C)CC2)cc1 (configuration not stated),9,1
COc1ccccc1NCc1ccccc1Oc1ccc(S(=O)(=O)N2CCCC2)cn1,38,1
Nc1nc(-c2ccc(Cl)cc2)c(N=Nc2ccc(S(=O)(=O)N3CCOCC3)cc2)s1,12,-2
CCN(CC)S(=O)(=O)c1cccc(-c2nnc(SCC(=O)Nc3cc(C)ccc3C)o2)c1,24,4
COc1ccc(O)c(C(=O)c2cnn(S(=O)(=O)c3ccc(C)cc3)c2)c1,12,4
COc1ccc(Cl)c(N2CC(c3nc4ccccc4n3C(C)C)CC2=O)c1 (configuration not stated),-11,-9
Cc1[nH]c2ccc(C(=O)OCC(=O)NC3CC3)cc2c1C,24,36
O=C(O)c1ccccc1OCc1cn2ccccc2n1,22,9
O=C(c1cc(-c2ccccc2)nn1-c1ccccc1)N(C1CC1)C1CCS(=O)(=O)C1 (configuration not stated),7,2
Cc1nnc(SCC(=O)N2N=C3/C(=C/c4ccco4)CCCC3C2c2ccco2)n1-c1ccccc1 (configuration not stated),8,0
Cc1cc(/C=N/NC(N)=S)c(C)n1CC(F)(F)F,-100,-72
COC(=O)c1cc(CSc2nnc(NCc3ccccc3)s2)oc1C,14,7
O=c1c2c3c(sc2ncn1/N=C/c1cccnc1)CCCC3,14,20
Cc1nc2ncnn2c(C)c1CCC(=O)N(C)CC(=O)Nc1ccc(OC(F)(F)F)cc1,8,6
CSc1ncccc1C(=O)OCC(=O)N(C)C,8,0
CC1(C)CC(NCc2cc(Cl)c3c(c2)OCCCO3)CC(C)(C)N1,10,4
c1ccc(CC2CCN(Cn3cnc4ccccc43)CC2)cc1,7,2
CN(C)c1ccc(/C=N/OCC(=O)Nc2ccccc2C#N)cc1,0,0
Oc1ccccc1CN1CCN(Cc2ccccc2O)C1c1ccco1,16,8
O=C(CCc1ccc(S(=O)(=O)N2CCOCC2)cc1)NCc1ccncc1,4,-4
CCOC(=O)c1sc(N)c(C#N)c1CSc1nnc(Nc2c(C)cccc2C)s1,26,12
CC(C)NC(=S)N/N=C/c1ccc(N2CCOCC2)cc1,-50,-22
O=C(c1ccccc1)N1CCN(C(=S)NCc2ccc3c(c2)OCO3)CC1,28,10
CN(C)S(=O)(=O)c1ccc(=O)n(CC(=O)NCC2COc3ccccc3O2)c1 (configuration not stated),13,12
O=C(CN1C(=O)NC(Cc2c[nH]c3ccccc23)C1=O)c1ccc2c(c1)OCCO2 (configuration not stated),11,18
CC(C[N+](C)(C)C)OC(N)=O (configuration not stated),-4,8
CC1CCCCC1NC(=O)CSc1ccc(S(=O)(=O)N2CCCC2)cn1 (configuration not stated),12,3
COc1cccc([C@@]2(O)CCCC[C@@H]2CN(C)C)c1,54,6
CCOC(=O)c1sc2nc(CN3CCCCC3)nc(NC3CC3)c2c1C,23,-4
CSCCSc1nnc(-c2cccc(S(=O)(=O)N3CCCCC3)c2)o1,4,-4
CCC(C)N=C1NC(=O)C(CC(=O)NCc2ccccc2)S1 (configuration not stated),10,8
CN(C)S(=O)(=O)c1ccc(N2CCOCC2)c(C(=O)NCCC2=CCCCC2)c1,-3,2
CN(C)S(=O)(=O)c1ccc(=O)n(CC(=O)NCc2ccc(-c3ccc(Cl)cc3)o2)c1,20,14
CN(C)S(=O)(=O)c1cccc(CSc2ncccn2)c1,-14,4

# (listing goes on)
SMILES,BmaI1 enzyme,BmaI1 enzyme counterscreen
COc1cc(C#N)ccc1OCC(=O)NC1CCCCC1C (configuration not stated),2,2
COC(=O)CCCc1cccs1,2,12
CC1NC(=S)N(C2CC2)C1=O (configuration not stated),-98,-70
CN(C(=O)COC(=O)c1ccc(CN2CCCC2=O)cc1)c1ccccc1,19,14
C=CCN1C(=O)c2ccc(C(=O)Nc3ccc(F)cc3)cc2C1=O,12,16
Cc1nn(-c2ccccc2)c(C)c1CCC(=O)OCc1ccc(C#N)cc1,29,6
CN(C(=O)COC(=O)c1cccc(F)c1)c1ccccc1,9,3
CC(Sc1nnc(-c2ccccc2)o1)C(=O)NCCC1=CCCCC1 (configuration not stated),8,4
Cc1sc2nc(C(C)Sc3nnc(-c4cccs4)n3-c3ccccc3)[nH]c(=O)c2c1C (configuration not stated),21,8
COC(=O)c1sc(N)c(C(=O)OC)c1COC(=O)c1cc(S(N)(=O)=O)ccc1OC,6,2
CS(=O)(=O)Nc1ccccc1C(=O)OCC(=O)NC1CC1,0,-4
CC(=O)Nc1ccc(C(=O)COc2ccc(-c3nnco3)cc2)cc1,34,6
COc1ccc(S(=O)(=O)N2CCN(C(=O)c3cc4c(s3)CCC4)CC2)cc1,11,2
Cc1cccc(Nc2nnc(SCC(=O)Nc3cc(Cl)ccc3C#N)s2)c1,41,-1
O=C(O)c1cc(S(=O)(=O)NN(Cc2ccccc2)c2ccccc2)ccc1O,16,6
CC1CC(C)CN(C(=O)COC(=O)c2ccc(S(=O)(=O)N(C)C)cc2)C1 (configuration not stated),12,2
COc1ccc(C(=O)NCC(=O)OC2CCOC2=O)cc1 (configuration not stated),2,0
Cc1ccccc1Nc1nc(CN2CCN(S(=O)(=O)c3ccccc3C#N)CC2)cs1,44,20
CCCCc1ccc(NC(=O)c2c(Cl)nc3sccn23)cc1,22,16
CN=C1SC(CC(=O)Nc2ccc(Br)cc2)C(=O)N1/N=C/c1cccs1 (configuration not stated),-8,-8
O=C1CC(c2ccccc2)C(=O)N1Cc1ccc(Cl)cc1 (configuration not stated),10,4
c1csc(-c2csc(N3CCCCC3)n2)c1,16,8
COc1ccc(/C=N/NC(=O)c2sc(C)nc2C)cc1,2,14
O=C([C@@H]1CCCN1C(=O)c1cccs1)N(CC1CCCO1)C1CCS(=O)(=O)C1 (some centres not stated),17,2
CCOCc1cnc(C)nc1NC(C)=O,4,4
COc1ccc(S(N)(=O)=O)cc1C(=O)Nc1ccc(N2CCOCC2)cc1,10,-6
CC(Sc1nnc(-c2ccc3c(=O)n4c(nc3c2)CCCCC4)o1)C(=O)Nc1ccc(F)cc1 (configuration not stated),19,2
CCCC(CCC)C(=O)O,2,0
N=c1sc(SCc2ccccc2)nn1CC(=O)c1ccc2c(c1)OCCO2,6,4
Cc1cc(NC(=O)COC(=O)Cn2[nH]c(=O)c3ccccc3c2=O)no1,9,4
CC1CCN(Cn2c(=O)n(CN3CCC(C)CC3)c3ccccc32)CC1,9,2
O=C(COC(=O)[C@@H]1CCCN1S(=O)(=O)c1ccc(Cl)cc1)Nc1ccccc1,32,-3
O=C(CSc1nnnn1-c1ccccc1)NC(=O)Cc1ccccc1,8,2
O=C(COc1ccc(-c2nnco2)cc1)N1CCOCC1,16,8
CCOC(=O)C1CCN(Cn2nc(C3CC3)oc2=S)CC1,31,7
COCCNC(=O)CN1CCN(Cc2cc(C)n(CCc3ccc(Cl)cc3)c2C)CC1,14,-4
CCN(CC(=O)NC1CCS(=O)(=O)C1)Cc1nc2c(Br)cc(Br)cc2c(=O)[nH]1 (configuration not stated),14,0
C=CCn1c(SCC(=O)Nc2cc(C)on2)nnc1C1COc2ccccc2O1 (configuration not stated),12,7
CSc1nc2ccccc2n1CC(=O)N1CCN(c2ccccc2)CC1,11,5
c1ccc(-n2cnnc2SCc2nc3ccccc3s2)cc1,12,-2
C[C@@H](C(=O)N1CCSC1=NCc1ccccc1)N1C(=O)C2CC=CCC2C1=O (some centres not stated),8,4
COC(=O)c1ccc(C(c2c(N)n(CC(C)C)c(=O)[nH]c2=O)N2CCOCC2)cc1 (configuration not stated),12,6
COC(=O)c1sccc1NC(=O)CCCC(=O)O,6,0
CC(C(=O)Nc1ccc(S(=O)(=O)N2CCCCC2)cc1)N(C)Cc1nc2ccccc2c(=O)[nH]1 (configuration not stated),4,2
CCCCNS(=O)(=O)c1ccc2nc(SC(C)C(=O)N3CCCC3)[nH]c2c1 (configuration not stated),14,18
CN(C(=O)CSc1nnnn1C)c1ccccc1,4,4
Cc1ccsc1C(=O)OCC(=O)Nc1sccc1C#N,14,6
COc1cc(/C=N/NC(=S)NCC2CCCO2)ccc1OC(=O)c1ccco1 (configuration not stated),22,6
CCN(Cc1ccc2c(c1)OCCO2)C(=O)c1ccc(=O)n(Cc2ccccc2)n1,15,7
O=C(Nc1nc2ccccc2[nH]1)C1CC(=O)N(Cc2ccccc2)C1 (configuration not stated),0,-6
O=S1(=O)c2cccc3cccc(c23)N1Cc1nc2ccccc2s1,16,16
O=C1CCCN1C(=O)CSc1nnnn1-c1ccccc1,10,14
CC(OC(=O)c1cccnc1SC(C)C(=O)NC1(C#N)CCCCC1)C(=O)NC1(C#N)CCCCC1 (configuration not stated),8,4
O=C(c1cnn(C(=O)CN2c3cccc4cccc(c34)S2(=O)=O)c1)c1ccccc1O,-6,-6
FC(F)(F)c1cnc(N2CCc3ccccc3C2)c(Cl)c1,-2,-4
Cc1cccc(C)c1NC(=O)CO/N=C/c1ccccc1O,18,10
CC(OC(=O)c1ccc(NS(=O)(=O)c2cccs2)cc1)c1nc2scc(-c3cccs3)c2c(=O)[nH]1 (configuration not stated),16,8
Cc1noc(C)c1CSCC(=O)N1CCSC1=Nc1cccc(Cl)c1C,14,4
CCc1ccc2c(CN3CCc4ccccc43)cc(=O)oc2c1,15,6
CCCn1c(=O)n(C)c(=O)c2c(SCc3cc(=O)n4ccsc4n3)nc(CC(C)C)nc21,13,4

# Continued.
SMILES,BmaI1 enzyme,BmaI1 enzyme counterscreen
CC1CCCN(C(=O)COC(=O)Cc2n[nH]c(=O)c3ccccc23)C1 (configuration not stated),11,5
COc1ccc2oc(C(=O)OCC(=O)Nc3cccnc3Cl)c(C)c2c1,8,4
C=CCn1c(C)cc(C(=O)CSc2nnc(-c3ccccc3F)n2C)c1C,12,2
CC1(C)O[C@@H]2C[C@H]3[C@@H]4CCC5=CC(=O)C=C[C@]5(C)[C@@]4(F)[C@@H](O)C[C@]3(C)[C@]2(C(=O)CO)O1,-4,-5

# 17 neighbouring compounds already listed, for reference:
SMILES,BmaI1 enzyme,BmaI1 enzyme counterscreen
O=C(CN1CCN(c2ccccc2Cl)CC1)N1CCc2ccccc21,14,4
Clc1ccc(OCCCc2nc(-c3cccnc3)n[nH]2)c(Cl)c1,18,28
CCOC(=O)N1CCN(c2nc(-c3cccnc3)nc3ccccc23)CC1,4,-6
CCOC(=O)C1CCN(Cn2nc3cc(C)c4ccccc4n3c2=S)CC1,90,66
Cc1nc(SCC(=O)NCC2CCCO2)nc(C)c1C (configuration not stated),14,4
O=C(c1ccccc1F)N(Cc1ccccc1)C1C=CS(=O)(=O)C1 (configuration not stated),14,2
COc1cccc(CN(C)C(=O)C2CC(=O)N(c3ccc(C)cc3)C2)c1OC (configuration not stated),16,6
COc1ccc(CC(=O)O)cc1F,22,-6
N#C/C(=C1/CCCN1)c1nc(-c2ccccc2)cs1,12,3
CCCc1nc2ccccc2n1CC(=O)N1N=C(c2ccc(Cl)cc2)CC1c1ccco1 (configuration not stated),2,-8
CC(=O)Nc1ccc(/C=N/N2C(=O)c3ccccc3C2=O)cc1,13,14
COc1cc(/C=C/C(=O)O)cc(S(=O)(=O)Nc2ccc3[nH]c(=O)[nH]c3c2)c1OC,14,8
CNC(=O)c1c(C)nc(SCC(=O)N2CCCC2=O)c(C#N)c1-c1ccco1,11,4
CC(C)C(=O)Nc1ccc2oc(-c3cncc(Br)c3)nc2c1,5,-2
COc1cc(CNC(=O)c2ccc(N(C)C)cc2)cc(OC)c1OC,2,6
COc1cc2c(cc1/C=C/C(=O)O)OC(C)C2 (configuration not stated),15,7
C=CCn1c(=O)[nH]c(=O)c2c(N)c(C(=O)c3ccc(OC)cc3)sc21,14,16

# Compound activity (PubChem)

# Only part of the results is shown. The share of hits here may be higher or lower than overall.
